Mtb growth = M. tuberculosis H37Rv growth inhibitors, H37Rv strain (AID 1626) | M. tuberculosis H37Rv growth inhibition; higher % means a stronger effect | one-dose inhibition, % at 10 µM; IC50 in µM for titrated hits | actives 0.95% (n = 220,000);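 active means confirmed in a dose series; inconclusive means inhibition above 80% but not taken into the dose series; inactive means below 80% or under 30% at every dose of the series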;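 further: bacteria incubated seven days before Alamar blue readout; 0% = bacteria only wells and 100% = bacteria with antibiotic wells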
Mtb betalactam = beta-lactam sensitization of Mtb H37Rv; M. tuberculosis H37Rv growth with meropenem, percent inhibition; hits of this screen are not shown here; AID 434955; inhibition, % at 25 µM; actives 0.27% (n = 330,000);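 active means about 74% or more and at least 40 points above the plate without the antibiotic, then above 30% in a dose series; inconclusive means first-round hits that could not be retested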;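 further: growth measured after seven days incubation then overnight dye step; 0% = bacteria only wells and 100% = bacteria with antibiotic; twin plates without the antibiotic show which effects depend on it; some results filed as inactive read as strong as hits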
Arbovirus anti = antivirals against arbovirus infection; inhibition, % at 10 µM; AID 1251; actives 0.37% (n = 200,000); arbovirus infection cell-based antiviral screen;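 active means inhibition from about 30%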;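 further: bluetongue infection of BSR cells; cell survival read as ATP light after 72 h; 0% = infected wells without compound and 100% = uninfected wells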
RecA splice inh = inhibitors of M. tuberculosis RecA intein splicing; P9WHJ3; cell-free RecA intein splicing, fluorescence; inhibition, %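 (about 9 µM by stock and volumes)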; actives 0.75% (n = 290,000); AID 2221; in the data active means inhibition above about 30%; inconclusive means no clear call, values can overlap the other calls;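 further: 0% = vehicle wells and 100% = reference inhibitor control wells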
Target sequence (P9WHJ3 whole entry, looked up, canonical isoform): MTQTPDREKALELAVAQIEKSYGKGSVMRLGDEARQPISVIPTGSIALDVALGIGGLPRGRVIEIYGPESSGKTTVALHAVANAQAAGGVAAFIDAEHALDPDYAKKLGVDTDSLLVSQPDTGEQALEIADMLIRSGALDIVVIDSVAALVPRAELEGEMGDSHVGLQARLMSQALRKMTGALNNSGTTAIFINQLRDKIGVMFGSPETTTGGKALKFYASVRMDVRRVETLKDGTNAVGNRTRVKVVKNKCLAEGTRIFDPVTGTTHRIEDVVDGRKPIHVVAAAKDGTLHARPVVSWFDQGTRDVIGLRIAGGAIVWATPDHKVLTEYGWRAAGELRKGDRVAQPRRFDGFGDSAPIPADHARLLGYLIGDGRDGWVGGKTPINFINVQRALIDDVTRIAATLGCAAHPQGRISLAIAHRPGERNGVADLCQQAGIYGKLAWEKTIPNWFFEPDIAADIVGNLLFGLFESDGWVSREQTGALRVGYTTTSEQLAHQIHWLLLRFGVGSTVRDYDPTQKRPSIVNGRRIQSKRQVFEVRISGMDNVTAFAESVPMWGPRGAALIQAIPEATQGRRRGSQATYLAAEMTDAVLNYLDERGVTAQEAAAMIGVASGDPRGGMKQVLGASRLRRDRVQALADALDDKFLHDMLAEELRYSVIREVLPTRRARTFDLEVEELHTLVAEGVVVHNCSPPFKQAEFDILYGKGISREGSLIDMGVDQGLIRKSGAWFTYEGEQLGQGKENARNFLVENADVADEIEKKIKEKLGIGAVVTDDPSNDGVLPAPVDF
YopH inh = inhibitors of Yersinia enterocolitica YopH tyrosine phosphatase; fluorescence Ex485/Em525; inhibition, %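 (about 10 µM by stock and volumes)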; actives 0.16% (n = 140,000);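 active means inhibition of 50% or more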;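 further: controls were vehicle for no effect and minimum signal wells for full effect; inactives centre near -20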
Arbovirus anti repeat = second read-out of Arbovirus anti, no call of its own (marks repeat the call); inhibition, %; measured here: 10K subset replicate screen; many hits read low in the repeat;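 first of two repeat runs on a subset; 0% = infected and 100% = uninfected wells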
An asterisk follows results filed as active; ? = inconclusive; / = not tested or not shown; & = joins results of further samples. Not all compounds are listed; count on the stated rates, not on these rows.

SMILES	Mtb growth	Mtb betalactam	Arbovirus anti	RecA splice inh	YopH inh	others
N#CCC1c2ccccc2CCN1C(=O)Nc1cccc(Cl)c1 (centres undefined)	5%	-6	-2	/	-25
COc1cc(N=Nc2ccc3ccccc3c2)ccc1O	/	89	/	12	/
Cc1ccc(-c2nnn(CC(=O)Nc3ccccc3N3CCOCC3)n2)cc1	-1%	-7	4	-1.1	-22
Cc1[nH]nc2c1C(c1ccoc1)C(C#N)=C(N)O2 (centres undefined)	7%	-3	-1	84*	-33
Cn1c(N/N=C/c2cccs2)cc(=O)n(C)c1=O	/	-5	-2	-2.7	-2
CN(C)CCN(C(=O)C1CCN(S(=O)(=O)c2cccs2)CC1)c1nc2ccccc2s1	/	-5	/	1.8	/
O=C(NC1CCCN(Cc2ccc(Cl)cc2)C1)c1c(F)ccc(F)c1F (centres undefined)	/	3	/	1.4	/
CS(=O)(=O)N1CCc2cc(C(=O)N3CCN(c4ccc(F)cc4)CC3)ccc21	/	2	/	-0.7	/
CCN1C(=O)C2C(C1=O)N1C(c3cccs3)C3C(=O)N(CC)C(=O)C3N1C2c1cccs1 (centres undefined)	-6%	-12	7	0.1	-22
CC(=O)c1ccc(NC(=O)CN2CCN(c3ncccn3)CC2)cc1	3%	0	7	0.0	-19
CCN(CC)CCNC(=O)C1(O)c2cc(Br)ccc2NC(=O)N1c1cccc(OC)c1 (centres undefined)	/	-2	/	-1.5	/
COc1cccc(-c2cc(C(F)(F)F)c3c(N)c(C#N)sc3n2)c1	/	4	-1	-6.4	-27
Cc1ccc(NC(=O)C2CCCN2S(=O)(=O)c2ccc3c(c2)CCC(=O)N3)cc1Cl (centres undefined)	0%	?	-14	0.0	/	Arbovirus anti repeat=-3
CCN1CCN(S(=O)(=O)c2ccc(Cl)c(C(=O)Nc3ccc(OC(F)F)cc3)c2)CC1	/	-9	/	-3.2	/
CCCNC(=O)c1ccccc1NC(=O)c1ccccc1N(C)S(=O)(=O)c1ccccc1	7%	5	3	1.8	-21
COc1cccc(NC(=O)Nc2ccc3c(c2)N(C)C(=O)CS3)c1	7%	6	-7	2.6	-6
COc1ccc(OCCSc2nnc(-c3cccnc3)n2N)cc1	2%	1	5	-2.3	-15
Cc1cccc(-n2c(-c3cccs3)nc3ccccc3c2=O)c1	8%	4	16	7.1	-15
CC(=O)NC(CC(=O)Nc1cccc(S(=O)(=O)N2CCCCC2)c1)c1ccccc1 (centres undefined)	2%	-8	2	1.7	0
CC(=O)c1c(C)n(C)c2ccc(O)cc12	>100µM*	96	-2	-1.0	5
Cc1cccc(N2CCc3c2nc2ccccc2c3N)c1	4%&38%	13&-4	-2&20	-1.6	-52&-7	Arbovirus anti repeat=-12
CCc1nnc(NC(=O)C2CCCO2)s1 (centres undefined)	0%	2	-2	-1.1	/
COc1ccc(-n2nc(C(=O)NCCCN3CCOCC3)c3ccccc3c2=O)c(OC)c1	/	-2	/	-3.3	/
CCCCC1=CC2=C(c3ccco3)C(=O)C(C)(OC(=O)c3ccc(OC)cc3)C(=O)C2=CN1CCCOC(C)C (centres undefined)	-6%	-2	/	0.5	/
COc1ccccc1/C=C1\SC(=S)N(CCC(=O)Nc2cccc(O)c2)C1=O	/	-2	/	5.8	/

Two records drawn at random from those above:
SMILES	Mtb growth	Mtb betalactam	Arbovirus anti	RecA splice inh	YopH inh	others
Cc1cccc(N2CCc3c2nc2ccccc2c3N)c1	4%&38%	13&-4	-2&20	-1.6	-52&-7	Arbovirus anti repeat=-12
COc1cc(N=Nc2ccc3ccccc3c2)ccc1O	/	89	/	12	/

The list goes on.
SMILES	Mtb growth	Mtb betalactam	Arbovirus anti	RecA splice inh	YopH inh	others
COc1cccc(/C=N/NC(=O)CC(=O)NCCc2ccc(OC)c(OC)c2)c1	-3%	0	-3	0.6	-29
O=C(CSc1ccccc1Cl)NC1CCCc2ccccc21 (centres undefined)	4%	7	6	3.1	-32
CCc1ccc(NC(=S)N2CCC(NC(=O)c3ccccc3)CC2)cc1	/	2	/	-0.3	/
CN(C(=O)CSc1nc(C2CC2)nc2ccccc12)c1nc(-c2ccccc2)cs1	-8%	-10	-26	1.9	-46
COc1cccc(NS(=O)(=O)c2ccc3c(c2)CCCN3C(C)=O)c1	-1%	-1	7	-0.3	-4
C/C(Cn1nnc([N+](=O)[O-])n1)=N\NC(=O)c1ccccc1O	5%	59	/	-7.9	/
COc1ccc(/C=C/C(=O)NCCc2c[nH]c3ccccc23)cc1OC	/	4	/	2.7	/
COc1ccc(Cn2c(=O)[nH]c3cc(C(=O)NCCCN4CCCC4=O)ccc3c2=O)cc1	-9%	-9	0	-2.0	-30	Arbovirus anti repeat=9
COc1ccc(CNC(=O)C2CCN(S(=O)(=O)N3CCOCC3)CC2)cc1	11%	3	9	0.9	-25
COC(=O)c1ccccc1-c1cn(C)c2ccccc2c1=O	/	3	/	-0.7	/
CCC(=O)Nc1ccc2nn(-c3ccc(F)cc3)nc2c1	/	11	/	-3.5	/
CC1(C)CC(=O)c2cc(C(=O)NC3CCSC3=O)c(=O)n(-c3ccc(Cl)cc3)c2C1 (centres undefined)	-7%	-1	3	3.2	5
Cn1c2ccccc2c2cc(C(=O)O)ccc21	8%	0	2	1.0	-13
Cc1ccc(S(=O)(=O)N(CC(=O)N/N=C/c2cccc3c2OCCO3)c2ccccc2F)cc1	-2%	-6	8	/	-16
c1ccc(-c2nnc(-c3ccco3)o2)cc1	1%	-2	1	-1.4	-26
C[N+](C)(C)CC/C=C1/c2ccccc2CSc2ccccc21	-9%	-3	-1	-2.3	12
COc1ccc(C(=O)Nc2ccc(N3CCN(C)CC3)cc2)cc1[N+](=O)[O-]	6%	-3	1	-1.2	/
COc1ccc(/C=N/OCc2ccccc2C#N)c(OC)c1	/	4	/	1.3	/
C=CCn1c(=O)c2ccccc2n2c(SCc3csc(-c4ccccc4)n3)nnc12	/	-7	5	-2.4	-40
Cc1cc(C)c2nc(N3CCC(C(=O)NCCCN4CC(C)CC(C)C4)CC3)sc2c1 (centres undefined)	3%	3	-32	0.1	/
CC(=O)Nc1ccccc1NS(=O)(=O)c1ccc(Cl)cc1	-5%	-5	-15	-0.6	-35
COc1cccc2cc(C(=O)Nc3ccc(F)cc3)c(=Nc3ccc(C(=O)O)cc3)oc12	0%	3	2	-0.7	/
Cc1cc(NC(=O)c2ccccc2-c2ccccc2)ccc1Br	16%	7	1	11	-2
Cc1cccc2[nH]c(CN(C)C(=O)CC3C(=O)NCCN3CC(C)(C)C)nc12 (centres undefined)	-8%	5	2	-2.8	/
CCn1c(C)[n+](CC)c2ccc(C(=O)N(C)c3ccccc3)cc21	3%	6	0	2.9	/
Next section
SMILES	Mtb growth	Mtb betalactam	Arbovirus anti	RecA splice inh	YopH inh	others
CCn1c(CC(=O)Nc2ccccc2)nnc1SCC(=O)NC1CCCC1	/	0	/	-0.3	/
CSc1nnc(C2CCCN(CC(=O)Nc3ccccc3N3CCOCC3)C2)n1C(C)C (centres undefined)	/	1	/	-3.1	/
COc1ccc(Cn2c(O)c(C=Nc3ccc(OC)cc3)c3ccccc3c2=O)cc1	14%	-3	3	-3.8	12
Cc1cccc(C)c1NC(=O)CN1N=NC2C(=O)N(c3cccc(Cl)c3)C(=O)C21 (centres undefined)	5%	0	2	-2.2	-38
O=C(CSC1=NCCS1)c1ccc(Cl)cc1	6%	-4	2	4.9	/
Cc1cccc(C)c1OCc1cc(C(=O)N2CC3C[C@@H]4CC2C[C@H](C3)C4)no1	/	26	/	13	/
COC(=O)c1sc(S(=O)(=O)N2CCCCC2C(=O)O)c(C(=O)OC)c1C (centres undefined)	-4%	9	11	0.0	-74
COC(=O)Cc1ccc(NC(=S)NCCSc2ccc(Cl)cc2)cc1	4%	-6	/	10	/
O=C(NC1CCCCC1)C(c1ccco1)N(CCc1ccccc1)C(=O)C(F)(F)F (centres undefined)	-3%	1	-9	1.4	0
COc1ccc(CCNC(=O)C2CCCCC2C(=O)O)cc1OC (centres undefined)	-1%	4	1	/	5
CCOc1ccc(CNc2nc3ccccc3n2C)cc1	/	-11	/	0.5	/
Cc1c(N2C(=O)CSC2c2ccc(F)cc2)c(=O)n(-c2ccccc2)n1C (centres undefined)	0%	5	/	-43	/
CCOC(=O)CC1(NC(=O)C2CCC(=O)N(CCc3ccc(OC)cc3)C2)CCCCC1 (centres undefined)	/	-6	/	1.8	/
CCn1c2ccccc2c2cc(C3C(C#N)=C(N)Oc4n[nH]c(COC)c43)ccc21 (centres undefined)	7%	6	-40	77*	-28
O=C(O)/C=C/S(=O)(=O)c1ccc2ccccc2c1	9%	2	/	0.4	/
Cc1ccc(-n2ncc3c(=O)n(CC#N)cnc32)cc1	2%	25	-8	-0.4	-15
COc1cc(NC(=S)NC(=O)c2cccs2)ccc1NC(=O)C(C)C	13%	91	2	-7.0	/
COc1cc(-n2c(=O)c3ccccc3n(Cc3ccccc3)c2=O)cc(OC)c1OC	0%	1	7	/	0
CCCCN1C(=O)C(=O)NC[C@@H]1C(C)O (some centres undefined)	-2%	2	/	-1.1	/
CCCCn1c(SCC(=O)N(C)C)nnc1-c1ccncc1	1%	3	13	0.1	/
Cc1cc(Cl)cc(Cl)c1CNc1c([N+](=O)[O-])c(=O)oc2ccccc12	5%	-2	12	-4.3	-23
CSc1nnc(N2C(=O)C(O)=C(C(=O)c3ccco3)C2c2ccccc2)s1 (centres undefined)	/	8	/	-4.3	/
O=C(NCC1CC1(Cl)Cl)Nc1ccc(Cl)c(Cl)c1 (centres undefined)	/	97	/	18	/
CCNC(=O)c1ccc(C23CC4CC(CC(C4)C2)C3)o1	7%	11	1	-0.5	/
C=C1CCN(C(C)C(=O)OC)S(=O)(=O)c2ccccc21 (centres undefined)	-2%	-4	/	-0.3	/

Filtered by structure: the compounds so far containing a CF3 group.
SMILES	Mtb growth	Mtb betalactam	Arbovirus anti	RecA splice inh	YopH inh	others
COc1cccc(-c2cc(C(F)(F)F)c3c(N)c(C#N)sc3n2)c1	/	4	-1	-6.4	-27
O=C(NC1CCCCC1)C(c1ccco1)N(CCc1ccccc1)C(=O)C(F)(F)F (centres undefined)	-3%	1	-9	1.4	0

By substructure: the compounds so far with an NH in an aromatic ring.
SMILES	Mtb growth	Mtb betalactam	Arbovirus anti	RecA splice inh	YopH inh	others
Cc1[nH]nc2c1C(c1ccoc1)C(C#N)=C(N)O2 (centres undefined)	7%	-3	-1	84*	-33
COc1ccc(/C=C/C(=O)NCCc2c[nH]c3ccccc23)cc1OC	/	4	/	2.7	/
COc1ccc(Cn2c(=O)[nH]c3cc(C(=O)NCCCN4CCCC4=O)ccc3c2=O)cc1	-9%	-9	0	-2.0	-30	Arbovirus anti repeat=9
Cc1cccc2[nH]c(CN(C)C(=O)CC3C(=O)NCCN3CC(C)(C)C)nc12 (centres undefined)	-8%	5	2	-2.8	/
CCn1c2ccccc2c2cc(C3C(C#N)=C(N)Oc4n[nH]c(COC)c43)ccc21 (centres undefined)	7%	6	-40	77*	-28

More records
SMILES	Mtb growth	Mtb betalactam	Arbovirus anti	RecA splice inh	YopH inh	others
Cc1ccc(C)c2[nH]c(=O)c(CN(CCN3CCCC3)C(=O)Nc3cccc(Cl)c3)cc12	19%	93	-16	2.5	-22
COC(=O)/C(C(C)=O)=C(/C=C/C=C/N(C)C)N(C)C	-10%	7	5	-3.7	-11
CCn1c2ccc(C)cc2c2nnc(NN)nc21	2%	4	0	0.0	-2
CCCn1nnnc1NC(=O)c1cccs1	?	98	-9	0.7	-8
CN(C(=O)COC(=O)c1ccccc1NCCO)C1CCS(=O)(=O)C1 (centres undefined)	/	-5	/	-9.5	/
Cc1ccc(SCCC(=O)Nc2cc(C)on2)cc1	1%	-3	0	-1.4	/
Cc1cnc(C(=O)OC(C)C(=O)Nc2cccc3ccccc23)cn1 (centres undefined)	/	-12	/	7.3	/
O=S(=O)(Nc1cccc(-c2ccc(N3CCCCCC3)nn2)c1)c1cccc(F)c1	/	10	/	10	/
COc1cc([N+](=O)[O-])cc(CN2CCCCC2)c1O	2%	3	7	-0.6	-5
O=C(Cc1ccc([N+](=O)[O-])cc1)N1CCN(Cc2ccc3c(c2)OCO3)CC1	/	-2	/	-1.3	/

3 entries from above, ordered by molecular weight, smallest number first.
SMILES	Mtb growth	Mtb betalactam	Arbovirus anti	RecA splice inh	YopH inh	others
COc1cc([N+](=O)[O-])cc(CN2CCCCC2)c1O	2%	3	7	-0.6	-5
Cc1ccc(SCCC(=O)Nc2cc(C)on2)cc1	1%	-3	0	-1.4	/
Cc1cnc(C(=O)OC(C)C(=O)Nc2cccc3ccccc23)cn1 (centres undefined)	/	-12	/	7.3	/

Compound activity from PubChem.
